Screens: PubChem, National Center for Advancing Translational Sciences (NCATS)
VACV mCherry inh – vaccinia inhibition (mCherry reporter); Vaccinia virus mCherry reporter infection, fluorescence; about a quarter of the inactives have no number; Potency, µM (series often up to 36.5 µM), for the others: top-dose activity change, negative = inhibition, actives largely listed as inhibitors; actives 0.63% (n = 310,000); AID 720579; active = well fitted inhibition curve with a large enough effect; inconclusive = small, poorly fitted or top-dose-only effect; inactive = no such curve, though single readings can be large or run the other way; tested in A549 cells; further: nearly all actives have a fitted effect of over 35% in size; inactives centre near -10
VACV Venus inh – inhibitors of vaccinia virus (Venus reporter); actives 0.46% (n = 330,000); Potency, µM (titrated, usually from 36.5 µM), for inactives: at the highest dose activity change, negative = inhibition, usual class: inhibitors; AID 720580; Vaccinia virus Venus reporter expression, fluorescence; active means well fitted inhibition curve with a large enough effect; inconclusive means small, poorly fitted or top-dose-only effect; inactive means no such curve, though single readings can be large or run the other way; tested in A549 cells; further: nearly all actives have a fitted effect of over 30% in size; inactives centre near -10
The depositor's hits bear a star; i = inactive; u = inconclusive; x = no result given; & = joins results of further samples; [ ] = remark or other dose. On the % scale 0 is the no-effect control and ±100 the full control effect; potency means the concentration at half of the fitted maximal effect.

SMILES	VACV mCherry inh	VACV Venus inh
O=C(c1ccc2oc(Cc3ccc(Cl)cc3)nc2c1)N1CC[C@H](O)C1	-12%	-28%
NC(=O)CC(NC(=O)Cc1cccc2ccccc12)c1ccc(NCCN2CCCCC2)c([N+](=O)[O-])c1 (configuration not stated)	-7%	-16%
C=CCNc1sc(C(=O)c2cccs2)c(N)c1C#N	-21%	-15%
Cc1cc(C)nc(N/C(=N\S(=O)(=O)Cc2ccccc2)Nc2ccccc2Br)n1	u	2%
CC(C)Oc1ccc(CNC(=O)c2ccc3c(c2)N(C)CCS3)cc1	u	-17%
Cc1oc2cc3oc(=O)c(CC(=O)N[C@@H](C)C(=O)NC(Cc4ccc(Cl)cc4)C(=O)O)c(C)c3cc2c1C (some centres not stated)	8%	5%
c1csc(-c2nnsc2-c2nc3ccccc3[nH]2)c1	-15%	-6%
CCOC(=O)C1=C(C)NC(C)=C(C(=O)OCC)C1C(=O)OCC(=O)N(C)Cc1ccccc1	i	-7%
Cc1cc(C)c2sc(N(CCN(C)C)C(=O)CCS(=O)(=O)c3ccccc3)nc2c1	u	u
COc1ccc(CCNC2CCCCC2)cc1OC	i	-3%
CC1(C(=O)NS(=O)(=O)c2ccc3c(c2)CCO3)CCN1C(=O)C1(c2ccc(Cl)cc2)CC1 (configuration not stated)	34%[activator]	6%
Cc1ccc(N(CC(=O)NC2CCCCC2)C(=O)CNC(=O)c2cccs2)cc1	-9%	0%
CC1(C(=O)Nc2ccccc2)CCN1C(=O)CCc1ccc(Cl)cc1Cl (configuration not stated)	-16%	-6%
COc1cccc(C(=O)NNS(=O)(=O)c2ccc(C)cc2)c1	-15%	-4%
COc1ccc(-n2cnc3cc(C(=O)N4CCC5(CC4)OCCO5)ccc32)cc1	-14%	u
CN1CCN(C(=O)c2cccc(-c3ccc4nccn4c3)c2)CC1	3%	-3%
CCN[C@H]1CN(CCCOC)S(=O)(=O)c2sc(S(N)(=O)=O)cc21	-13%	-11%
Cc1ccc(OCc2nnc(-c3ccccc3)o2)cc1	-7%	-4%
COC(=O)c1ccc(/C=N/NC(=O)CC(=O)NC2CCCCC2)cc1	i	-11%
Cc1cccc(C)c1NC(=O)C(NC=O)c1ccc(Cl)cc1 (configuration not stated)	-5%	0%
COC(=O)C(c1ccccc1)N1CCCCCC1 (configuration not stated)	x	-6%
Cc1ccc(-c2nc(SCC(=O)Nc3cc(S(=O)(=O)N4CCCCC4)ccc3Cl)n[nH]2)cc1	-23%	-24%
C=CCC(O)(CCN1CCCCC1)c1ccccc1 (configuration not stated)	x	-15%
O=C(O)c1ccc(COc2ccc(Cl)cc2)o1	-6%	0%
Nc1cc(OCc2ccccc2)ccc1OCc1ccccc1	u	2%
SMILES	VACV mCherry inh	VACV Venus inh
Cc1ccc(NC(=O)C(=O)NCc2ccco2)c(C)c1	-17%	-8%
COc1ccc(NC(=O)c2cnc(NS(=O)(=O)c3ccccc3)nc2)cc1	-3%	-4%
CCOC(=O)C1=CN(Cc2ccco2)S(=O)(=O)N(C)C1c1ccc(C(F)(F)F)cc1 (configuration not stated)	i	0%
CCOC(=O)c1nn(-c2ccccc2)c(C#N)c1NC(=O)c1nn(CC)cc1Br	-5%	-18%
CN1CCC2(CC1)NC(=O)NC2=O	-10%	-10%
COc1ccccc1C(=O)N/N=C/c1ccc(Cl)s1	-15%	-13%
CCOC(=O)C1(C)C=C(Nc2ccc(O)cc2)C(=O)N1c1ccc(O)cc1 (configuration not stated)	i	-7%
O=C1NN(c2ccc(Br)cc2)C(=O)/C1=C\c1ccc(O)cc1O	-9%	-9%
Cc1onc(-c2c(F)cccc2Cl)c1C(=O)N1CCCc2ccccc21	u	u
O=C(/C=C/c1cccc(Cl)c1)N1CCC(Cc2ccccc2)CC1	-10%	-5%
COc1ccc(S(=O)(=O)N(CC(=O)NCc2ccco2)c2ccccc2)cc1OC	-10%	u
N#Cc1ccc(C(=O)Nc2nnc(-c3ccco3)o2)cc1	-22%	-20%
CCCNC(=O)/C=C/c1ccc(S(=O)(=O)Nc2ccccc2OC)cc1	i	-11%
Cc1ccc(NC(=O)CN2C(=O)NC(C)(CC(C)C)C2=O)cc1F (configuration not stated)	i	0%
COc1ccc(C)cc1N(C(=O)c1ccccc1)c1nc2ccccc2s1	i	-11%
COc1ccccc1/C=C(\C#N)c1nc(-c2cc3ccccc3oc2=O)cs1	-9%	5%
COc1c(Cl)cc(Cl)cc1C(=O)Nc1cccc(-c2nc3ccccc3o2)c1C	u	u
CC1CN(c2oc(-c3cccs3)nc2C#N)CC(C)O1 (configuration not stated)	x	25%
O=C(NCc1ccccc1F)c1ccc(S(=O)(=O)Nc2cccc(C(F)(F)F)c2)cc1	-16%	-16%
Cc1cnc(C(=O)Nc2nc(-c3ccccc3)cs2)cn1	-6%	-11%
Cc1ccccc1-n1ccnc1SCC(=O)O	x	4%
COc1ccccc1CNC(=O)c1cc(-c2cc(Cl)ccc2C)n[nH]1	7%	-23%
CC1CCC(NC(=O)CCN2C(=O)C3CC=CCC3C2=O)CC1 (configuration not stated)	-3%	-19%
CCn1c(=O)c(C(=O)CN(C)Cc2cccc(OC)c2OC)c(N)n(Cc2ccccc2)c1=O	-17%	-10%
COc1ccccc1C1SCCN1S(=O)(=O)c1ccccc1 (configuration not stated)	-15%	-14%
SMILES	VACV mCherry inh	VACV Venus inh
O=C(COn1nnc2ccc(C(F)(F)F)cc21)Nc1nnc(-c2ccccc2)o1	-26%	-13%
COc1ccc(NC(=O)C2CCCN(S(=O)(=O)c3ccccc3)C2)c(OC)c1 (configuration not stated)	-24%	-25%
CCOC(=O)C(c1nc2ccccc2[nH]1)n1c(-c2ccccn2)nc2ccccc21 (configuration not stated)	2%	-10%
CC(=O)Nc1ccc(NC(=O)C(C)OC(=O)C(C)SCC(=O)Nc2ccc(F)cc2)cc1 (configuration not stated)	-8%	-4%
O=C(Nc1nonc1-c1ccc(Br)cc1)c1ccco1	-3%	3%
O=C(NC[C@@H]1CC[C@@H](Cc2ccc(-c3ccccc3)cc2)O1)Nc1ccc(Br)cc1	-18%	u
O=C(NNC(=O)c1n[nH]c(=O)c2ccccc12)c1ccc(Br)cc1	-12%	-7%
Cc1sc(NC(=O)CSc2nnc(N)s2)c(C#N)c1C	-25%	-2%
C=CCN1CCc2c(cc(O)c(O)c2Cl)C(c2ccccc2)C1 (configuration not stated)	-2%&-13%	-15%&-8%
O=C(O)CCC(=O)Nc1ccc(Br)cc1C(=O)c1ccccc1Cl	-18%	-5%
O=C1c2ccccc2C2=Nc3ccccc3SC(c3cccc(F)c3)C12 (configuration not stated)	u	u
CC1CC(C)CN(C(=O)COC(=O)c2nn(C)c(=O)c3ccccc23)C1 (configuration not stated)	-12%	-9%
Cc1ccc(N(CC(=O)NCCc2ccccc2)S(=O)(=O)c2c(C)noc2C)cc1	-3%	-11%
N#Cc1nc(COc2ccc(Br)cc2)oc1N1CCCC1	x	-8%
Cc1ccc(Cl)cc1NC(=S)N(CCCN1CCN(C)CC1)Cc1ccco1	-22%	-16%
CCOC(=O)C1CCN(C(=O)Cn2cc(C#N)c3ccccc32)CC1	-8%	-2%
O=S(=O)(c1ccc(Cl)cc1)c1nc(-c2cccs2)oc1N1CCCCC1	-20%	1%
COc1nc(-c2ccccc2)c2c(c1C#N)CC(C)(C)OC2	x	-6%
O=C(NC1CCCCC1)c1ccc(Cn2c(SCc3ccc(F)cc3)nc3cccnc32)cc1	u	u
Cc1cccc(NC(=O)Nc2nnc(N3CCCC3)s2)c1	-3%	-1%
Cc1cccc(C)c1NC(=O)C(=O)NCC(c1ccc2c(c1)OCO2)N1CCOCC1 (configuration not stated)	-8%	-11%
O=c1[nH]c2ccccc2c2oc(CCl)nc12	-7%	2%
O=C(O)c1ccc(NN=Cc2cc(=O)[nH]c(=O)[nH]2)cc1	-14%	-4%
COc1ccc(S(=O)(=O)N(C)C[C@@H]2Oc3ccc(NS(=O)(=O)c4cn(C)cn4)cc3C(=O)N([C@@H](C)CO)C[C@@H]2C)cc1	i	-6%
COC(=O)CCCCCCCCCCN1CCCCC1	-11%	-9%
SMILES	VACV mCherry inh	VACV Venus inh
COc1ccc2sc(N(Cc3cccnc3)C(=O)C3COc4ccccc4O3)nc2c1 (configuration not stated)	i	-25%
COC(=O)c1cccc(NC(=O)CC2C(=O)NCCN2C(=O)Nc2cc(C)cc(C)c2)c1 (configuration not stated)	i	-13%
O=C(NCCS(=O)(=O)N1CCN(c2ccccc2)CC1)c1cccs1	-13%	-24%
Cc1ccccc1N1CCN(C2CCCN(C(=O)c3ccc(Cl)s3)C2)CC1 (configuration not stated)	-15%	-26%
O=C1CCCCC1C1(O)C(=O)Nc2ccccc21 (configuration not stated)	i	2%
CCN1C(=O)c2ccccc2S(=O)c2ccc(C(=O)N3CCN(c4ccc(F)cc4)CC3)cc21 (configuration not stated)	-1%	-7%
O=C(c1cnc2n(c1=O)CCS2)N1CCN(c2ccccc2F)CC1	-12%	12%
COc1ccccc1C(=O)N1CCN=C1SCc1cccnc1	i	0%
O=C(N/N=C/c1ccccc1O)c1cccc(C(F)(F)F)c1	3.5µM*	u
CN(C(=O)COC(=O)c1ccccc1NCc1ccco1)c1c(N)n(Cc2ccccc2)c(=O)[nH]c1=O	-4%	4%
COc1ccccc1CN1CCNC(=O)C1CC(=O)N(C)Cc1cnccn1 (configuration not stated)	i	-11%
CCC1(C2CCN(C(=O)c3ccc4ccccc4c3)CC2)NC(=O)N(CCc2scnc2C)C1=O (configuration not stated)	-10%	-3%
CCN(CC)S(=O)(=O)c1ccc(NC(=O)c2cccnc2Cl)c(NC(=O)c2cccnc2Cl)c1	u	u
Cc1c(NC(=O)c2cc(-c3ccc(Cl)cc3)on2)c(=O)n(-c2ccccc2)n1C	-20%&-11%	-9%&-11%
Cc1cccc(NCN2C(=O)c3ccccc3C2=O)c1	i	-7%
CCn1ncc(Br)c1C(=O)Nc1ccc(F)c([N+](=O)[O-])c1	-9%	-26%
CCOC(=O)COc1ccc(S(=O)(=O)NCc2ccncc2)cc1	-12%	-14%
CCCS(=O)(=O)N1CCCC(C(=O)NCCCN2CCN(c3ccc(F)cc3)CC2)C1 (configuration not stated)	x	-26%
CCc1ccc(C(=O)N2CCC(c3nc4ccccc4s3)CC2)cc1	-29%	u
CCCC(=O)NC(C)C(c1cccs1)N1CCN(c2ccccc2)CC1 (configuration not stated)	2%	-4%
C/C=C(\C)C(=O)Nc1cccc(C2=NOC3(C2)C[C@@H](C(N)=O)N(C(=O)/C(C)=C/C)C3)c1 (some centres not stated)	i	-2%
NC(N)=NCC(O)CN(c1ccccc1)c1ccccc1 (configuration not stated)	-23%	-17%
CN(C)C(CNC(=O)c1ccc(NS(=O)(=O)c2ccc(F)cc2)cc1)c1ccco1 (configuration not stated)	-2%	-1%
CCOCN(C(=O)Cn1c(CC(C)C)nc2ccccc21)c1c(C)cccc1CC	7%	-7%
Cc1ccc(SCCC(=O)N2CCCC2)cc1	-14%	-9%
O=C(COC(=O)c1ccccc1O)NCCc1c[nH]c2ccccc12	-2%	-19%
O=Cc1ccc(OCC(=O)Nc2ccccc2C(F)(F)F)cc1	-13%	1%
N#Cc1cnn2c(-c3ccc(Cl)cc3Cl)ccnc12	i	-12%
c1cnc(OCCN2CC2)cn1	-14%	-12%
